# Screening data as filed in PubChem BioAssay.
# rRNA inh HTS: selective bacterial rRNA inhibition in E. coli. E. coli WT GFP vs humanized-ribosome RFP mutants, fluorescence, 24 h; hits give low values; DMSO median 0, no signal -100. actives 1.6% (n = 350,000). GFP signal change (wild-type ribosome), % (concentration not given with the values);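 active = significant combined selectivity score with lowered wild-type GFP, culture density cut under 30%, mutant RFP and density less affected; inactive = any of these conditions unmet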; note: one replicate is shown; some compounds called inactive have numbers as strong as hits
# FGF22 binding: shifts melting point of recombinant human FGF22; recombinant FGF22 thermal shift, SYPRO orange fluorescence; percent of sucrose octasulfate shift, DMSO zero; calls only at 9.99 µM; actives 1.5% (n = 340,000); AID 651658;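 active = melting point raised past a set limit in the mean and every replicate; three in four hits are not shown here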
# Target sequence (Q9HCT0 whole entry, looked up): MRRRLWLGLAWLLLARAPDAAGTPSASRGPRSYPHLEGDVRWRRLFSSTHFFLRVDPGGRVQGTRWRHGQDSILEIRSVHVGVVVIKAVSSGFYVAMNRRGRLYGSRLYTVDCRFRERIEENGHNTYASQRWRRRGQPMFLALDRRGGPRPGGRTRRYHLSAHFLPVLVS
# AF4-AF9 inh: inhibitors of human MLL-AF4/AF9 interaction. P42568. AID 651704. inhibition, % at 10 µM. actives 0.47% (n = 350,000). AlphaScreen, biotin-AF4 peptide binding to FLAG-AF9;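 active = every replicate reaching a set inhibition limit, whatever the replicate mean, cut at about 25% in these data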;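 note: 0% = plate neutral control median and 100% = total signal loss; the record names both 10 and 1 µM as test concentration; the first replicate is given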
# Target sequence (P42568 whole entry, looked up): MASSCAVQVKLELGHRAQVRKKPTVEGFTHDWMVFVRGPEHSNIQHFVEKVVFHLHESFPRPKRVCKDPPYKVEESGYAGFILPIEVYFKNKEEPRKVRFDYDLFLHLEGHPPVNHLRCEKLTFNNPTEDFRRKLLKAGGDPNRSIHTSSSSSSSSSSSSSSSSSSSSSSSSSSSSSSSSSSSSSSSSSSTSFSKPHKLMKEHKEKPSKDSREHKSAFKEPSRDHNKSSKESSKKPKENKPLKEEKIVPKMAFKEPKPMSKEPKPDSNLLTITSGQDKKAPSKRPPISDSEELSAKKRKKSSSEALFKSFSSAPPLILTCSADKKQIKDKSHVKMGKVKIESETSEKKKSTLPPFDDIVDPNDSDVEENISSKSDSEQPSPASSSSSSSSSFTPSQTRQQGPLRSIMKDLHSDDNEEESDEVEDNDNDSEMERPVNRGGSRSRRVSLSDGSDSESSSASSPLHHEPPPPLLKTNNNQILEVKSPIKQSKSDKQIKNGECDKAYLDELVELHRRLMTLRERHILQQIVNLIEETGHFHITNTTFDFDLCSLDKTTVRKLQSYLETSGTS
# rRNA inh HTS OD600: also measured in rRNA inh HTS; calls as there; OD600 change, %; measured here: OD600 growth;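 optical density of the mix in the first replicate; 0 = DMSO median and -100 = no signal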
# rRNA inh HTS RFP: also measured in rRNA inh HTS; calls as there; RFP signal change, %; measured here: RFP humanized mutant strains;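 first replicate; 0 = DMSO median and -100 = no signal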
# Numbers without * were called inactive; i = inactive; + = active, no number; & = joins results of further samples.
SMILES,rRNA inh HTS,rRNA inh HTS OD600,rRNA inh HTS RFP,FGF22 binding,AF4-AF9 inh
C/C=C/c1ccc2c(c1)O[C@@H](CN(C)C(=O)Nc1ccc(C(F)(F)F)cc1)[C@@H](C)CN([C@H](C)CO)S2(=O)=O,-2,-4,-1.1,+,1.3
CO[C@H]1CN(C)C(=O)c2ccc(NC(=O)c3cnccn3)cc2OC[C@@H](C)N(C(=O)C2CC2)C[C@@H]1C,1,-1,-1.6,i,-0.5
COc1ccc(S(=O)(=O)Nc2ccc3c(c2)C(=O)N([C@H](C)CO)C[C@@H](C)[C@@H](CN(C)S(=O)(=O)c2c(C)noc2C)OCCCC[C@H](C)O3)cc1,-1,-6,-1.1,i,-0.4
COc1cccc(C(=O)Nc2ccc3c(c2)C(=O)N(C)C[C@@H](OC)[C@H](C)CN(C(=O)C2CC2)[C@H](C)CO3)c1,-4,-5,-0.4,i,-3.2
COc1ccc(NC(=O)Nc2ccc3c(c2)C(=O)N([C@@H](C)CO)C[C@@H](C)[C@H](CN(C)S(=O)(=O)c2ccc(F)cc2)OCCCC[C@@H](C)O3)cc1,-2,1,0.9,i,1.5
COc1ccccc1-c1cn(CC[C@H]2CC[C@H](NC(=O)C3CCCCC3)[C@@H](CO)O2)nn1,-4,5,0.7,i,-4.1
CC(=O)Nc1cc(-c2ccccc2)cn2c(-c3cccc(C(C)=O)c3)cnc12,0,-5,4.5,i,1.3
C[C@H](O)C#Cc1cnc2c(c1)C(=O)N([C@@H](C)CO)C[C@H](C)[C@@H](CN(C)C(=O)c1ccc(F)cc1)O2,7,19,-1.7,i,-4.3
O=C(C[C@@H]1CC[C@@H]2[C@H](COC[C@H](O)CN2S(=O)(=O)c2ccccc2F)O1)NCc1ccccc1F,6,1,2.8,i,-1.9
C[C@@H]1CN([C@H](C)CO)C(=O)c2cc(C#C[C@@H](C)O)cnc2O[C@H]1CN(C)C(=O)c1ccc(F)cc1,-2&6,4&12,0.9&-0.8,i,-1.3&-4.3
C[C@H](CO)N1C[C@H](C)[C@H](CN(C)C)OCc2cnnn2CCCC1=O,-1,8,2.7,i,0.4
CN(C)CC#Cc1ccc([C@H]2[C@@H](CO)N3CCCCN(C(=O)NC4CCCC4)C[C@H]23)cc1,6,17,-1.8,i,2.9
CO[C@H]1CN(C)C(=O)c2ccc(NC(=O)C3CCOCC3)cc2OC[C@H](C)N(C(=O)c2ccccc2)C[C@H]1C,2,0,-0.3,i,-0.2
CC1Sc2ccc(C#N)cc2N(Cc2cccc(C(F)(F)F)c2)C1=O (centres undefined),4,20,3.8,i,2.2
CCCC(=O)Nc1ccc2c(c1)OC[C@@H](C)N(Cc1ccccc1)C[C@@H](C)[C@@H](OC)CN(C)C2=O,-1,-7,-3.3,i,0.8
CO[C@@H]1CN(C)C(=O)c2ccc(NC(C)=O)cc2OC[C@H](C)N(C(=O)c2ccncc2)C[C@H]1C,0,-1,-1.7,i,-0.9
CN(C)c1ccc(-c2ccnc3c2CC(C)(C(=O)Nc2ccccc2)O3)cc1 (centres undefined),9,-19,4.7,i,6.2
Cc1ccc(-c2ccc(CN3C(C)C(=O)N(Cc4cn(CCC5OCCO5)nn4)CCS3(=O)=O)cc2)cc1 (centres undefined),0,-8,2.0,i,1.4
C[C@H]1CN([C@@H](C)CO)C(=O)CCCn2nncc2CO[C@H]1CN(C)S(=O)(=O)c1ccc(Cl)cc1,-4&2,13&2,14&0.6,i,-0.1&0.0&-0.1
COc1ccccc1-c1ccc([C@H]2[C@@H](C#N)N(C(=O)C3CCOCC3)[C@H]2CO)cc1,4,-21,17,i,1.2
C[C@@H]1CN([C@@H](C)CO)C(=O)c2cc(C#CC(C)(C)O)cnc2O[C@@H]1CN(C)C(=O)C1CCOCC1,6,6,-6.3,i,-1.2
CCCNC(=O)N(C)C[C@H]1Oc2ncc(-c3ccc(OC)cc3)cc2C(=O)N([C@@H](C)CO)C[C@H]1C,-2,-8,-2.9,i,0.0
O=C1NCCN(CC2CCN(CCc3ccccc3)CC2)C1=O,9,18,-1.6,i,-3.1
C[C@@H]1CN([C@@H](C)CO)C(=O)c2cc(NS(=O)(=O)c3cn(C)cn3)ccc2O[C@H]1CN(C)Cc1ccc2c(c1)OCO2,0,4,-1.3,i,-1.0
Cc1ccc(S(=O)(=O)N[C@H]2CC[C@H](CC(=O)N3CCc4ccccc4C3)O[C@H]2CO)cc1,-1,1,-0.3,i,-1.1
Cc1ccc(S(=O)(=O)NCC2CCC(C(=O)NCCCN3CCC(C)CC3)CC2)cc1 (centres undefined),4,4,-2.4,i,0.1
CCCCOCC1CN(Cc2ccccc2OC)S(=O)(=O)c2cc(Cl)ccc2O1 (centres undefined),10,5,2.7,i,-2.5
O=C(C[C@@H]1C[C@H]2c3cc(NC(=O)c4cccnc4)ccc3O[C@H]2[C@@H](CO)O1)NCCc1ccccc1,4,12,1.7,i,-0.2
O=S1(=O)N[C@@H](Cc2ccccc2)COc2cc(N3CCOCC3)ccc21,-7,-9,-0.4,i,-2.1
CCOc1cc(OCC)cc(C(=O)N2CCC[C@@H]2C(=O)N2CCC[C@@H]2C(=O)NCc2ccccc2Cl)c1,-12,-8,3.9,i,1.8
CCNC(=O)C[C@H]1CC[C@H]2[C@H](COc3ccc(NC(=O)Nc4ccccc4Cl)cc3C(=O)N2C)O1,-1,0,3.0,i,-0.7
CCCCOCCCNC(=O)C[C@H]1C[C@@]2(C(=O)OC)C(=C[C@H](COCc3ccccc3)O[C@@H]2C)N(Cc2ccc3c(c2)OCO3)C1=O,2,-1,4.9,i,-1.1
O=C(NC1CCCCC1)N[C@H]1CC[C@@H](CC(=O)N2CCOCC2)O[C@@H]1CO,-2,3,1.2,i,-1.6
CCCC#Cc1cnc2c(c1)C(=O)N([C@H](C)CO)C[C@@H](C)[C@H](CN(C)C(=O)Nc1ccccc1F)O2,-1,-6,-2.8,i,-0.3
O=C(C(=O)N(Cc1ccccc1)Cc1ccccc1)c1c(-c2ccccc2)[nH]c2ccccc12,4,9,0.9,i,1.3
Cc1ccc(Cc2c(-c3cccc(Br)c3)nc3c(Cl)cc(C(F)(F)F)cn23)cc1,8,14,0.8,i,-1.8
CN(C)CCN1CCN(c2cc(-c3cccc(Cl)c3)nc3ccnn23)CC1,8,9,2.3,i,5.4
CCOc1ccc(Cl)cc1-c1cc(C(=O)NCC2CCCCC2)[nH]n1,-4,-5,0.4,i,-0.4
C/C=C/c1ccc([C@@H]2[C@@H](CN(CC(C)C)C(C)=O)N(C(C)=O)[C@H]2CO)cc1,3,9,0.5,i,3.2
C[C@@H]1CN([C@H](C)CO)C(=O)c2cc(NC(=O)Nc3ccc(C(F)(F)F)cc3)ccc2O[C@H]1CN(C)Cc1ccc(-c2ccccc2)cc1,4,9,-1.5,i,-0.1
CCCC(=O)Nc1ccc2c(c1)OC[C@H](C)N(Cc1ccccc1)C[C@@H](C)[C@H](OC)CN(C)C2=O,-6,-6,2.0,i,3.1
COc1ccc(NC(=O)CCNC(=O)N2CC(=O)Nc3ccccc32)cc1OC,0,4,0.9,i,0.7
COC(=O)C[C@@H]1CC[C@H]2[C@@H](COc3ccc(NC(=O)C4CCOCC4)cc3C(=O)N2C)O1,2,4,0.7,i,0.9
O=C(CC1CC1)N1[C@H](CO)[C@@H](c2ccccc2)C12CN(Cc1ccncc1)C2,3,9,-3.0,i,-0.2
CC1=C(C(=O)N(C)C)CC(CC(=O)NCC2CCCCC2)C(=O)N1Cc1ccc(F)cc1 (centres undefined),6,13,-1.2,i,-3.5
C[C@H](NC(=O)CC[C@H]1O[C@@H](n2ccc(=O)[nH]c2=O)[C@H](O)[C@@H]1O)C(=O)O,3,13,-1.6,i,0.3
C[C@H](CO)N1C[C@H](C)[C@@H](CN(C)C(=O)CN(C)C)Oc2ncc(C#C[C@@H](C)O)cc2C1=O,6,14,-1.9,i,-2.5
COc1ccc(NC(=O)N2CC3(C2)CN(C(=O)C2CCC2)[C@H](CO)c2c3c3ccc(OC)cc3n2C)cc1,-2,-6,2.1,i,-4.1
CC(C)C[C@H]1COCc2cn(nn2)CC[C@@H](Cc2ccccc2)C(=O)N1,0,1,-5.6,i,-1.7
CCCC(=O)Nc1cc(OC)c(NC(=S)Nc2ccc(CC)cc2)cc1OC,-6,-6,20,i,2.2
COc1cccc(S(=O)(=O)Nc2ccc3c(c2)OC[C@@H](C)NC[C@@H](C)[C@@H](OC)CN(C)C3=O)c1,2,1,1.0,i,-1.8
O=C(C[C@@H]1C=C[C@@H](NS(=O)(=O)c2ccccc2)[C@H](CO)O1)N1CCC(Cc2ccccc2)CC1,2,-16,3.7,i,3.6
CO[C@H]1CN(C)C(=O)c2cc(NC(C)=O)ccc2OC[C@@H](C)N(C(=O)CN(C)C)C[C@H]1C,1,2,-1.9,i,-1.5
O=C(N[C@@H]1CC[C@@H](CC(=O)N2CCc3ccccc3C2)O[C@@H]1CO)C1CC1,-1,4,-1.3,i,-3.6
O=C1NC[C@H](CCCCN2C[C@H](Cc3ccc(O)cc3)N(CC3CCCCC3)C(=O)C2=O)N(CCC2CCCCC2)C1=O,-44,-73,5.5,i,2.6
c1coc(-c2nc(N=C3N=c4ccccc4=N3)[nH]c2-c2ccco2)c1,5,16,3.3,i,5.2
CCC(=O)N(C)C[C@H]1Oc2ncc(-c3cccc(OC)c3)cc2C(=O)N([C@@H](C)CO)C[C@@H]1C,2,10,-2.9,i,-3.9
COc1ccc2c3c([nH]c2c1)[C@H](CO)N(C(=O)NC1CCCC1)CC31CN(S(C)(=O)=O)C1,-2,9,1.0,i,-7.6
COc1ccc(S(=O)(=O)N(C)C[C@H]2Oc3ccc(NC(=O)CCN4CCOCC4)cc3CC(=O)N([C@@H](C)CO)C[C@@H]2C)cc1,1,5,-1.7,i,-0.9
O=C(N[C@H]1CC[C@H](CCNS(=O)(=O)c2ccccc2)O[C@H]1CO)c1cccnc1,1,10,1.3,i,-1.3

# Next section
SMILES,rRNA inh HTS,rRNA inh HTS OD600,rRNA inh HTS RFP,FGF22 binding,AF4-AF9 inh
O=C(Nc1ccc2c(c1)[C@H]1C[C@@H](CC(=O)N3CCCCC3)O[C@@H](CO)[C@H]1O2)C1CCOCC1,3,4,2.6,i,-2.9
O=C(C[C@@H]1CC[C@@H]2[C@H](COC[C@H](O)CN2C(=O)c2ccccc2F)O1)N1CCN(c2ccccc2)CC1,-1,-2,-1.0,i,2.8
CN1C(=O)c2cc(NC(=O)Cc3ccccc3)ccc2OC[C@@H]2O[C@@H](CC(=O)NCC3CC3)CC[C@@H]21,2,1,-1.3,i,-1.2
C[C@@H](NC(=O)C[C@@H]1CC[C@@H](NC(=O)Nc2ccc3c(c2)OCO3)[C@H](CO)O1)c1ccccc1,2,9,-2.5,i,-0.9
C[C@@H]1CN([C@H](C)CO)S(=O)(=O)c2ccc(C3=CCCCC3)cc2O[C@@H]1CN(C)Cc1ccccn1,-47,-72,-10,i,16
C[C@@H]1CCCCO[C@@H](CN(C)Cc2ccc(C(=O)O)cc2)[C@H](C)CN([C@@H](C)CO)C(=O)c2cc(NC(=O)Nc3ccc(C(F)(F)F)cc3)ccc2O1,5,-5,2.2,i,3.2

# Filtered by structure, those above containing a Cl atom
SMILES,rRNA inh HTS,rRNA inh HTS OD600,rRNA inh HTS RFP,FGF22 binding,AF4-AF9 inh
C[C@H]1CN([C@@H](C)CO)C(=O)CCCn2nncc2CO[C@H]1CN(C)S(=O)(=O)c1ccc(Cl)cc1,-4&2,13&2,14&0.6,i,-0.1&0.0&-0.1
CCCCOCC1CN(Cc2ccccc2OC)S(=O)(=O)c2cc(Cl)ccc2O1 (centres undefined),10,5,2.7,i,-2.5
CCOc1cc(OCC)cc(C(=O)N2CCC[C@@H]2C(=O)N2CCC[C@@H]2C(=O)NCc2ccccc2Cl)c1,-12,-8,3.9,i,1.8
CCNC(=O)C[C@H]1CC[C@H]2[C@H](COc3ccc(NC(=O)Nc4ccccc4Cl)cc3C(=O)N2C)O1,-1,0,3.0,i,-0.7
Cc1ccc(Cc2c(-c3cccc(Br)c3)nc3c(Cl)cc(C(F)(F)F)cn23)cc1,8,14,0.8,i,-1.8
CN(C)CCN1CCN(c2cc(-c3cccc(Cl)c3)nc3ccnn23)CC1,8,9,2.3,i,5.4
CCOc1ccc(Cl)cc1-c1cc(C(=O)NCC2CCCCC2)[nH]n1,-4,-5,0.4,i,-0.4

# These rows are one share of the data; count on the stated rates, not on these rows.
